# NPYLR7 ag – agonists of mosquito NPYLR7 receptor, primary screen, cell-based, Aedes aegypti, calcium fluorescence, mosquito biting behavior; Aedes aegypti neuropeptide Y-like receptor 7 (NPYLR7); HEK293T NPYLR7/Galpha15, GCaMP6s calcium fluorescence; activation, % at 10 µM; actives 0.15% (n = 270,000); in the data active = activation above about 40%;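 note: 0% = vehicle and 100% = reference agonist at the receptor; some compounds past the cut are filed as inactive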
# NPYLR7 ag max-min – second read-out of NPYLR7 ag, no call of its own (marks repeat the call); activation, %; measured here: Max-Min RFU normalised activation; some inactives read as strong as hits;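 span of the calcium signal over five minutes; 0% = vehicle and 100% = native peptide agonist; compound fluorescence can raise it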
# The depositor's hits bear a star.
SMILES,NPYLR7 ag,NPYLR7 ag max-min
COC(=O)C(C)Sc1nc2c([nH]c3ccccc32)c(=O)n1-c1ccc(OC)cc1 (stereo unspecified),0.4,46.3
Cc1cccc2c1NC1(CCN(C(=O)c3ccc(Cl)cc3Cl)CC1)NC2=O,6.1,15.4
CCc1ccc(C(=O)O)cc1S(=O)(=O)N(C)c1cccc(C)c1,10.3,10.0
CN(C)c1ncnc2sc3c(c12)CCCC3,1.6,1.3
O=c1c2ccccc2nc2ccccn12,-4.1,-4.6
COc1ccccc1/C=C/C=C1\N=C(c2cccc(C)c2)OC1=O,-4.3,-6.9
Cc1ccccc1CC(=O)NCc1ccc(C#N)cc1,-25.3,-25.8
COC1(OC)c2nonc2CCC1O (stereo unspecified),1.7,48.9
O=c1c2c(nc(NCCCO)n1-c1ccccc1)-c1ccccc1CC21CCCC1,4.7,5.3
CN(C)c1nc2c(c(=O)n(C)c(=O)n2C)n1C,3.9,13.1
O=C(NCc1nccs1)c1nn(CC2CC2)c2c1CN(C(=O)c1cn3ccccc3n1)CC2,20.8,8.8
COC(=O)c1ccc2c(=O)[nH]c(CN3CCc4sccc4C3C)nc2c1 (stereo unspecified),0.7,0.1
CC1CN(C(C)CNC(=O)c2cc3c(s2)CCC3)CC(C)O1 (stereo unspecified),-4.4,-3.9
COc1cc(NC(=O)Nc2ccc(N3CCC(C)CC3)c(C(=O)NC(C)c3ccccc3)c2)cc(OC)c1 (stereo unspecified),1.6,10.2
CCCn1cc(C(=O)Nc2cc(C)cc(C)c2)c2nn(-c3ccccc3)c(=O)c-2c1,4.2,2.1
CC(C)CCOC(=O)CCSc1n[nH]c(=O)[nH]c1=O,2.0,-0.4
Cc1cc(C)c2c(CC(N)=O)coc2c1C,-4.3,-5.4
Cc1ccc(C2c3c(n[nH]c3C)N=C3CC(C)(C)CC(=O)C32)cc1 (stereo unspecified),5.5,3.7
CC1CCCN(c2cc(C(=O)NCCC3=CCCCC3)c3ccccc3n2)C1 (stereo unspecified),31.5,20.6
CC(=O)Nc1ccc(CN2C(=O)CON=C2Cc2ccccc2)cc1,0.9,-0.7
CCn1c(=O)c2c(nc3n(CC4CCCO4)c(C)cn23)n(C)c1=O (stereo unspecified),-0.3,2.9
CC(NC(=O)CSCc1cc2c(cc1Br)OCO2)c1ccc(Cl)cc1 (stereo unspecified),-1.2,-4.2
COc1cccc(-c2noc3c2CN(c2ncnc4c2CCC4)CC3)c1,1.0,-2.4
CC(C)CN(Cc1cccn1Cc1ccccc1Cl)C(=O)CN(C(=O)c1ccc(Br)cc1)C(C)C,2.3,17.5
O=C(CNC(=O)c1cc2c(s1)CCCC2)NCc1ccsc1,9.0,4.4
Cc1ccc(-c2nnc3ccc(SCC(=O)N4CCOCC4)nn23)cc1,1.8,25.4
COc1cccc(C(=O)N2CCC(c3nc(-c4ccc(C(F)(F)F)cc4)no3)CC2)c1,-6.0,-6.7
O=C(Nc1cnc2sccn2c1=O)c1ccccc1Cl,7.1,6.0
CCOC(=O)COc1cccc(C(=O)Nc2ccc(N(C)C)nc2)c1,2.0,11.8
CN(CCCNC(=O)c1ccc(-n2nc(-c3cccc(C(F)(F)F)c3)cc2N)cc1)c1ccccc1,-14.5,-21.8
Cc1cccc(Nc2cc3c(cn2)nc(Cc2ccccc2)n3C)c1,17.5,12.4
CC(C)(C)NCC(=O)C(C)(C)C,0.8,-1.5
CCSc1nc(=O)[nH]c2c1CCCC2,-5.0,-8.9
O=C(NCCCN1CCOCC1)C(C1CCCC1)N1CCN(C(=O)c2cccs2)CC1 (stereo unspecified),-5.6,-10.5
O=C(CCC1CCCN(Cc2ccc3nsnc3c2)C1)N1CCOCC1 (stereo unspecified),-1.4,-5.8
CCOc1ccc(OCCNC(=O)Cc2c(C)nc3nc(N)nn3c2C)cc1,24.7,23.6
COc1cc(NS(=O)(=O)c2cc(C)ccc2C)ccc1NC(=O)OC(C)(C)C,0.9,-3.3
CCc1nc(C)c(C(C)N(C)C(=O)NCc2ccnn2C)s1 (stereo unspecified),4.4,4.6
CC(=O)N1CCN(CCNC(=O)/C=C/c2ccc(N(C)C)cc2)CC1,1.0,0.9
Cc1cc(C)n(CCCC(=O)N2C[C@H]3C[C@H](O)[C@H](O)C[C@H]3C2)n1,-3.9,-2.8
O=c1c2ccccc2c(=O)c2c1c(Sc1ccccc1)cc1sc3ccccc3[nH]c12,-7.9,-6.2
COCCN(CCOC)C(=O)c1cccnc1Nc1ccc(OC)cc1,-5.2,-12.2
Cc1nc(NC(=O)COC(=O)C2(c3ccc(F)cc3)CCC2)sc1C,7.2,6.9
COC(=O)c1ccc(CN2CCN(c3cc(OC)ccc3OC)C(=O)C2C)cc1 (stereo unspecified),-3.7,-1.3
O=C(CN1CCCC(O)(CO)CC1)NCc1ccccn1 (stereo unspecified),-1.5,-2.7
O=C1Nc2ccccc2/C1=N/n1cnc2ccccc21,-0.3,-2.8
C=CCNc1nnc(Cc2ccc(C(C)C)cc2)c(=O)[nH]1,8.3,3.6
CCc1nc2c(n1O)CCc1nonc1-2,-13.9,-15.4
O=C(Nc1cccc(I)c1)c1ccc(OCC2CCCO2)cc1 (stereo unspecified),16.5,17.2
CCS(=O)(=O)NCCN1c2ccccc2OCC1C (stereo unspecified),-0.7,-2.8

# Following part
SMILES,NPYLR7 ag,NPYLR7 ag max-min
Cc1cc(C(=O)Cn2cnc3sccc3c2=O)c(C)n1Cc1cccs1,5.5,3.2
O=C(c1cccs1)N(CC(=O)N1CCc2sccc2C1COc1ccc(F)cc1)CC1CCCO1 (stereo unspecified),-3.6,-1.5
CCOCCCn1c(SCc2cccc(SC(F)(F)F)c2)nc2cc(C(=O)OCC)ccc21,2.3,-1.1
CC(C)(C)NC(=O)CSc1ccc(S(=O)(=O)N2CCCCCC2)cn1,11.5,3.5
CCC(CC)C(=O)Nc1nc(OC)cnc1-c1cccc(C(=O)N(C)C)c1,-27.8,-30.4
CCOC(=O)C1CCCN(C(=O)c2csc(CSc3nnc(-c4ccco4)n3-c3ccccc3F)n2)C1 (stereo unspecified),-12.7,-6.2
O=C1N(Cc2cccc(Cl)c2)C[C@@H]2C[C@@H](c3cccc4ncccc34)N3CCC[C@@]123,4.2,0.6
COc1cc(CC2CN(C(=O)C(C)(C)c3ccc(F)cc3)C2)cc(OC)c1,3.8,2.6
CCSc1cc(C(=O)N(CC(F)F)C(C)C)ccn1,6.3,3.7
COc1ccccc1/C=C/CN1CCNC(=O)C1CC(=O)NCC(C)(C)CO (stereo unspecified),17.0,13.0
COc1ccc(S(=O)(=O)N2CCOCC2)cc1N1CCN(C(=O)c2cccc(C#N)c2)CC1,24.4,14.1
COC(=O)C1=C(C)N(C)C(C)=C(C(=O)OC)C1c1cccc(Br)c1,-10.6,-15.3
CS(=O)(=O)c1cccc(C(=O)N(Cc2ccccn2)c2nc3ccccc3s2)c1,-3.2,-6.5
Nc1ncccc1CN1CCCC(N2CCCC2=O)C1 (stereo unspecified),20.1,6.8
O=C(c1ccccc1OC1CCN(Cc2ccccc2-c2ccco2)CC1)N1CCCCC1,15.8,2.0
COCCOCC(=O)N1CCN(Cc2cccc(-c3noc(C4CCCC4)n3)c2)CC1,4.3,2.4
O=C(Nc1ccccc1I)c1c2c(nc3ccccc13)CCCC2,-1.0,-5.2
CCC(C)N(Cc1cccc(OS(=O)(=O)c2cccc(C(F)(F)F)c2)c1)C(=O)c1cccc(OC)c1 (stereo unspecified),0.4,10.1
CCOC(=O)N1CCN(C(=O)CSc2cc(N3CCCC3)ncn2)CC1,6.3,6.0
CCc1nc2ccc(C(=O)N(C)Cc3ccco3)cn2c1N(C)Cc1ccc(OC)cc1,3.6,-4.4
O=C(CSc1nc(=O)n(Cc2cccnc2)c2c1CCC2)Nc1nc2ccccc2s1,-3.2,-5.2
CCCCOC(=O)Nc1nnc(C)s1,2.9,2.5
COc1cc2c(cc1OC)C(CNC(=O)c1cccc(Cl)c1)N(C(=O)Nc1ccc(C)cc1)CC2 (stereo unspecified),1.8,2.7
COc1cccc(COc2c[nH]c(C(=O)Nc3ccccc3C(N)=O)cc2=O)c1,1.6,-1.0
Cc1ccc(S(=O)(=O)NCCC(=O)OCc2cc(C)on2)cc1,-1.5,-3.2
COCCN(Cc1c(-c2cccc(C)c2)noc1N1CCOCC1)C(=O)Cc1ccccc1,-10.9,-6.5
CC(=O)NC1CCN(c2ccc3cccc(Br)c3n2)CC1,-23.3,-26.2
O=C1C(C(c2ccccc2)N2CCC3(CC2)OCCO3)Sc2ncnn21 (stereo unspecified),7.3,6.5
COc1ccccc1N=Nc1c(-c2ccccc2)[nH]n(-c2nc(-c3ccccc3)cs2)c1=O,-6.8,-17.4
CC1CC(C)CN(C(=S)NC2CCCCC2)C1 (stereo unspecified),2.4,1.0

# Arranged by number of heavy atoms (smallest number first): part of the list above.
SMILES,NPYLR7 ag,NPYLR7 ag max-min
CCCCOC(=O)Nc1nnc(C)s1,2.9,2.5
CC1CC(C)CN(C(=S)NC2CCCCC2)C1 (stereo unspecified),2.4,1.0
Nc1ncccc1CN1CCCC(N2CCCC2=O)C1 (stereo unspecified),20.1,6.8
CC(=O)NC1CCN(c2ccc3cccc(Br)c3n2)CC1,-23.3,-26.2
Cc1ccc(S(=O)(=O)NCCC(=O)OCc2cc(C)on2)cc1,-1.5,-3.2
O=C(Nc1ccccc1I)c1c2c(nc3ccccc13)CCCC2,-1.0,-5.2
CCOC(=O)N1CCN(C(=O)CSc2cc(N3CCCC3)ncn2)CC1,6.3,6.0
CS(=O)(=O)c1cccc(C(=O)N(Cc2ccccn2)c2nc3ccccc3s2)c1,-3.2,-6.5
COCCOCC(=O)N1CCN(Cc2cccc(-c3noc(C4CCCC4)n3)c2)CC1,4.3,2.4
CCc1nc2ccc(C(=O)N(C)Cc3ccco3)cn2c1N(C)Cc1ccc(OC)cc1,3.6,-4.4
COCCN(Cc1c(-c2cccc(C)c2)noc1N1CCOCC1)C(=O)Cc1ccccc1,-10.9,-6.5
COc1cc2c(cc1OC)C(CNC(=O)c1cccc(Cl)c1)N(C(=O)Nc1ccc(C)cc1)CC2 (stereo unspecified),1.8,2.7
CCC(C)N(Cc1cccc(OS(=O)(=O)c2cccc(C(F)(F)F)c2)c1)C(=O)c1cccc(OC)c1 (stereo unspecified),0.4,10.1

# The list continues.
SMILES,NPYLR7 ag,NPYLR7 ag max-min
Cc1ccccc1C(=O)N1CCN(C(C(=O)NCc2cccnc2)C2CCCC2)CC1 (stereo unspecified),-3.5,1.4
Cc1cc(C)[n+]2ccccc2n1,-2.2,37.3
COc1cccc(F)c1C(=O)OCCC(C)OC (stereo unspecified),-2.2,-5.1
O=c1oc2ccccc2c(N2CCN3CCCC3C2)c1[N+](=O)[O-] (stereo unspecified),-1.6,-1.8
CC(NS(=O)(=O)c1ccccc1C(F)(F)F)c1ccc(S(N)(=O)=O)cc1 (stereo unspecified),9.6,6.5
CN(C)C(=O)CNC(=O)c1cc(-c2ccccc2)nc2c1cnn2Cc1ccccc1,10.7,12.3
COCCN(CCC(=O)Nc1ccccc1)c1nc(-c2ccccc2)nc2ccccc12,-0.1,17.2
O=S(=O)(c1ccc(Br)cc1)N1CCN(c2nc3nccc(-c4cc(Cl)ccc4Cl)n3n2)CC1,2.1,-2.1
CCc1nc2ccc(C(=O)NCc3ccc(OC)cc3)cn2c1N(CC)Cc1ccc2c(c1)OCCO2,0.7,28.2
CCOc1ccccc1CNC(=O)c1ccc(-c2cc(-c3cccc(OC)c3)n[nH]2)cc1,20.1,10.3
COc1ccc2c3c1CN(C1CCN(C)CC1)CC3=CC(C)(C)CO2,16.3,23.8
CCn1c(O)c(C(C)=NCC2CCCCC2)c(=O)n(CC)c1=S,5.1,4.2
CCN1CCN(CC(=O)Nc2c(Br)cc(C)cc2Br)CC1,5.7,5.0
COc1ccc(-c2cccc(-c3ccc(NC(=O)C(Cl)(Cl)Cl)cc3)n2)cc1,-2.7,5.2
COc1ccc(NC(=O)c2cc(S(=O)(=O)N3CCCCC3)ccc2N2CCCCC2)cn1,3.5,1.9
COCCNCc1ccc(C)s1,3.1,8.9
Cc1ccc(-n2nnnc2CNC(=O)c2ccccc2C(F)(F)F)cc1C,5.5,3.7
COc1ccc(N(C)C(=O)C2C(C=C(C)C)C2(C)C)cn1 (stereo unspecified),9.8,4.8
C=c1cc(C)n(CC(=O)Nc2ccccc2C)c(=O)c1=C1N=C(c2cccc(Cl)c2)NO1,0.1,-3.2
COc1ccc(/C=C2\SC(=S)N(CC(=O)NCCO)C2=O)cc1,-15.2,-16.8
CCOC(=O)C1=C(C)N=c2s/c(=C\c3ccco3)c(=O)n2C1c1ccc(C)cc1 (stereo unspecified),-2.6,-9.8
CC(C)(C)c1cc2nc(-c3ccccc3F)cc(C(=O)O)n2n1,-7.2,-1.1
O=C(NCC1CCC1)c1ccccc1C(=O)c1cccs1,-6.8,-7.4
O=C(NC1CC1)C1CCCN(C2CCN(C(=O)COc3cccnc3)CC2)C1 (stereo unspecified),8.1,5.6
CC1(C)CC2CC(C)(CN2C2CC(=O)N(c3ccccc3)C2=O)C1 (stereo unspecified),-14.4,-15.8
CCCc1c(C(=O)N2CCN(C)CC2)cnn1-c1ccc(F)cc1,-2.3,4.4
CCN(Cc1cccc(C(=O)Nc2c(C)cnn2C)c1)[C@H]1COC[C@@H]1O,2.3,1.3
N#CC1C(=N)OC2=C(C(=O)CCC2)C1c1ccc(Cl)cc1Cl (stereo unspecified),-10.9,-16.5
O=C1NCC2(CCCN(C(=O)CCn3cnc4ccccc43)CC2)O1 (stereo unspecified),-2.0,-4.1
Cc1cc(CN2CCCC2)ccc1Oc1ccc(-c2ccccc2)nn1,6.8,-0.5
COc1ccc(OCCNC(=O)c2cncn2-c2ccc(-c3cc(C(F)(F)F)cc(C(F)(F)F)c3)cc2)cc1,8.5,2.0

# Screens as filed in PubChem.

# These rows are one share of the data (hit frequency here may not be typical).
